Compound activity (PubChem)
PKD1 kinase inh: inhibitors of human PKD1 kinase, biochemical, fluorescence polarization | Serine/threonine-protein kinase D1 (Homo sapiens), Q15139 | PKD1 kinase fluorescence polarization assay | inhibition, %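 (about 10 µM by stock and volumes)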 | 200,000 compounds, 0.056% hits;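 active means inhibition of 50% or more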;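 further: controls were vehicle for no effect and a reference inhibitor for full effect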
RGS16-Gao HTS: modulators of RGS16 binding to Galphao, primary screen, biochemical, human proteins, multiplexed bead flow cytometry; binding response (% of control), % at 10 µM; 220,000 compounds, 0.38% hits; AID 1441, 2008; bead-based flow cytometry RGS16-Galphao binding, fluorescence; actives lie on both sides;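 active means below 25% or above 175%, edge rows of some plates excepted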;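 further: Galphao activated by GDP with aluminum fluoride before binding; 100% = wells without compound and 0% = beads without RGS; some results beyond the cut were filed as inactive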
Target sequence (O15492 whole entry, looked up): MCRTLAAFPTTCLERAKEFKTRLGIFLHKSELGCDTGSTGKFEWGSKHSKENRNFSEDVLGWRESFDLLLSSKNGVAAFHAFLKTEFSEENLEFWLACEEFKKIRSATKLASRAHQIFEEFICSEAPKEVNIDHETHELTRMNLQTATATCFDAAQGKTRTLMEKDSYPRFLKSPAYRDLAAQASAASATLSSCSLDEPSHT
Target sequence (P09471 whole entry, looked up): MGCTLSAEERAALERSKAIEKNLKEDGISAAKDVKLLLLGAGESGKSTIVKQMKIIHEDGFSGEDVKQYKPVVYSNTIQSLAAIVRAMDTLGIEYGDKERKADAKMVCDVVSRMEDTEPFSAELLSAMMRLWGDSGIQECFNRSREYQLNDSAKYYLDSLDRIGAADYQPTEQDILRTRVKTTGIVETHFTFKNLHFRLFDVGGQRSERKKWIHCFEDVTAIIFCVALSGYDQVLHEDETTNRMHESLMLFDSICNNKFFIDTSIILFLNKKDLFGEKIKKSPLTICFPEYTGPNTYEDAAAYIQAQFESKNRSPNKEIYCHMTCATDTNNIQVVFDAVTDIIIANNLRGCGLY
INS promoter inh: inhibitors of insulin promoter-driven GFP, primary screen, imaging, TRM-6 cells (human fetal islet line), eGFP reporter, cell count; reporter expression induced with tamoxifen; inhibition, % at 2 µM; 130,000 compounds, 0.9% hits; AID 1273, 2008;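 active means inhibition above the mean plus 3 SD, with well images judged a real hit on visual review, cut at about 60% in these data, passing the limit was not always enough; inconclusive means inhibition over the cutoff but images rejected on review; inactive means inhibition not above the cutoff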
GALR2 agonist: GALR2 receptor agonists, primary screen, cell-based. Galanin receptor type 2 (Homo sapiens), O43603. GALR2-expressing cells, agonist activation read-out. activation, %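 (tested at 5 µM)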. 140,000 compounds, 0.48% hits. AID 803, 2007;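 active means above mean plus 3 SD of all compounds, about 5% in these data, not always enough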;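 further: 0% = vehicle buffer wells and 100% = reference agonist at full effect; tested in CHO reporter cells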
Target sequence (O43603 whole entry, looked up): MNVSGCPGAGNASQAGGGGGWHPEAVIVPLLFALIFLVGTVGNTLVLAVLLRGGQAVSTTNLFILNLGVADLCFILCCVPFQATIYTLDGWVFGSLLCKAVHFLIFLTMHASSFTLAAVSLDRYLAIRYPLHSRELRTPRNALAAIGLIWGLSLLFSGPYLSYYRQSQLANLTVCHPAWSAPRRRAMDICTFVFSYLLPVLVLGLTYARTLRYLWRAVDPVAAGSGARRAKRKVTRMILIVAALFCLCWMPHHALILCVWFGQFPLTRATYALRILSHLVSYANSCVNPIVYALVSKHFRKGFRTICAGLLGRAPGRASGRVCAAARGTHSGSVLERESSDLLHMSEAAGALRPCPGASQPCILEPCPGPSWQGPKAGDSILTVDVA
HSV augment: enhancers of HSV replication in host cells, fold increase, host cell viability. maximum fold increase. 220,000 compounds, 0.005% hits. HSV replication augmentation in cells;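 active means peak rise of 1.5-fold or more in the series; inconclusive means self-fluorescent or not available for retest; tested in PC3 cells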;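 further: first round at 10 µM; read as green reporter fluorescence; hits show the peak of a series up to 25 µM; 1 = signal of infected wells without compound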
INS promoter inh cell count: second read-out of INS promoter inh, no call of its own (marks repeat the call); normalized cell count, %; measured here: cell count, toxicity; reference of the scale not given here;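 cells exposed to compound for 48 h; stained nuclei by imaging scaled within each plate; lower means fewer cells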
HSV augment primary fold: further read-out of HSV augment, marked with its call; fold increase; compound at 10 µM; measured here: primary screen fold increase 10 uM; tested in PC3 cells;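 GFP signal in the first replicate; 1 = infected wells without compound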
* hit, by the source's call; i = inactive; u = inconclusive; x = not tested or not shown.

Molecule,INS promoter inh cell count,INS promoter inh,HSV augment,PKD1 kinase inh,HSV augment primary fold,RGS16-Gao HTS,GALR2 agonist
COC(=O)C1=C(N)Oc2cc(C)oc(=O)c2C1c1cccnc1 (stereo not given),x,x,i,7,0.79,101,0.3
S=C(NCc1cccs1)Nc1ccccc1Cl,160,26,i,2,0.94,108,-0.9
COCC(=O)Nc1ccccc1C(=O)NC(C)C,41,-84,i,1,1.1,87,-0.4
O=C1NC(=S)N/C1=C/c1cccc([N+](=O)[O-])c1,54,-64,i,7,0.99,97,x
CCOC(=O)c1cccc(N2C(N)=NC(N)=NC2(C)C)c1,x,x,i,5,0.92,101,-3.5
COc1ccc(CCN(C)Cc2ccc(OCc3ccccc3)c(OC)c2)cc1OC,x,x,i,-5,1.1,114,0.4
S=C(Nc1ccc2nccnc2c1)N1CCOCC1,x,x,i,-4,1,106,x
Cn1c(NC(=O)C[n+]2cc(-c3ccc(Cl)cc3)n3c2CCC3)cc(=O)n(C)c1=O,101,-56,i,-1,0.94,101,-0.8
O=C1CC(N2CCN(c3cccc(C(F)(F)F)c3)CC2)C(=O)N1c1ccccc1F (stereo not given),85,-29,i,0,0.97,272,-1.1
Cc1ccc(-c2nnc(-c3ccccc3)c(-c3ccccc3)n2)cc1,x,x,i,1,1.2,89,-0.6
C=C(C)c1cccc(C(C)(C)NC(=O)Nc2ccc3[nH]c(=O)[nH]c3c2)c1,x,x,i,-6,0.91,101,-0.1
CCCCCCc1nc2ccccc2c(=O)n1N,x,x,i,2,0.89,17,-1.4
COc1ccc(N(CCC(=O)O)S(=O)(=O)c2ccc(C)c(C)c2)cc1,x,x,i,x,0.84,101,x
CCCS(=O)(=O)N1CCN(S(=O)(=O)c2ccc(F)cc2)CC1,114,-32,i,-4,1,104,-3.5
COC(=O)c1cccc(NC(=S)NCc2ccc(Cl)cc2)c1,124,10,i,-9,1.1,98,-2.0

Sorted by heavy-atom count (smallest number first): three of the compounds above
Molecule,INS promoter inh cell count,INS promoter inh,HSV augment,PKD1 kinase inh,HSV augment primary fold,RGS16-Gao HTS,GALR2 agonist
COC(=O)C1=C(N)Oc2cc(C)oc(=O)c2C1c1cccnc1 (stereo not given),x,x,i,7,0.79,101,0.3
Cc1ccc(-c2nnc(-c3ccccc3)c(-c3ccccc3)n2)cc1,x,x,i,1,1.2,89,-0.6
O=C1CC(N2CCN(c3cccc(C(F)(F)F)c3)CC2)C(=O)N1c1ccccc1F (stereo not given),85,-29,i,0,0.97,272,-1.1

(further entries)
Molecule,INS promoter inh cell count,INS promoter inh,HSV augment,PKD1 kinase inh,HSV augment primary fold,RGS16-Gao HTS,GALR2 agonist
COc1ccccc1C=NC(CO)C(O)c1ccc([N+](=O)[O-])cc1 (stereo not given),98,-3,i,6,0.96,103,-0.8
c1ccc(CSc2nnc(-c3cccnc3)o2)cc1,94,-284,i,-2,0.91,102,-0.7
CCCCCC(=O)Nc1cccc(C2=NOC3(C2)C[C@@H](C(N)=O)N(C(=O)C2(C)CC2)C3)c1 (stereo not given in full),x,x,i,x,1.1,102,x
CSc1ccc(NC(=O)Nc2ccccc2C(N)=O)cc1,x,x,i,x,0.93,102,x
N=C1S/C(=C\c2cccc3ccccc23)C(=O)N1c1ccc(F)cc1,118,-7,i,2,0.66,101,-1.4
CC(C)(C)C1CCc2c(sc(NC(=O)c3cccs3)c2C(=O)N2CCCCC2)C1 (stereo not given),103,-31,i,1,0.96,106,-0.5
N#C/C(=C\c1ccc(OC(=O)c2cccs2)cc1)c1nc2ccccc2[nH]1,96,33,u,3,x,102,-1.5
Cc1ccc(-n2c(=O)[nH]cc(C(=O)N3CCc4ccccc43)c2=O)cc1,80,0,i,-3,1.1,86,-3.0
Cc1cccc(-c2cc3nc(C)cc(C)n3n2)c1,111,21,i,-7,1,33,x
Cc1nc(=O)c(-c2ccccc2)c(C)n1-c1ccccc1O,x,x,i,-5,1.2,106,-1.2
CCCCCC(O)CCc1n[nH]c(=S)n1-c1ccccc1 (stereo not given),112,-12,i,-8,1.1,83,-1.5
CN1/C(=C\C(=O)CSc2ncn[nH]2)C(C)(C)c2ccccc21,111,12,i,6,1,72,-1.9
COc1ccccc1OCCNC1CCCC1,85,-19,i,4,0.83,103,-0.7
Nc1nc2n(n1)C(c1ccco1)CC(c1ccc(Cl)cc1Cl)N2 (stereo not given),89,0,i,-22,0.95,102,-2.0
O=C(NC1CCCCC1)c1ccccc1-c1ccccc1,x,x,i,4,1.1,114,-0.6
COC(=O)c1ccc(N2Cc3ccccc3/C2=N\C(=O)Nc2ccccc2)cc1,x,x,i,-3,1.4,91,0.2
Cc1cc(Cl)ccc1OCC(=O)n1cc(C(=O)c2cc(Cl)ccc2O)cn1,93,45,i,-7,0.83,105,x
CC1=Nn2c(nnc2-c2ccccc2F)SC1,x,x,i,-2,0.68,130,-3.1
O=C(CCC(=O)NNC(=O)Cc1ccccc1)NCc1ccccc1,x,x,i,3,1,110,x
Cn1c(SCC(=O)N2c3ccccc3CCc3ccccc32)nnc1-c1ccc(O)cc1,168,24,i,-6,0.98,101,1.4
Cc1nnc(Nc2ccc(O)cc2)[nH]c1=O,x,x,i,-14,0.96,103,x
COc1cccc(C(=O)NNC(=O)Cc2ccc([N+](=O)[O-])cc2)c1,x,x,i,-9,1.1,103,-0.5
Cc1ccc(C(=O)Nc2ccc(Oc3cccc(C(F)(F)F)c3)nc2)cc1,x,x,i,x,0.93,98,x
CCOC(=O)CSc1ccc(C(=O)Nc2ccc(Cl)cc2)cn1,x,x,i,-4,0.59,106,x
COc1ccc(-n2nnc3c(SCC(=O)NCC4CCCO4)ncnc32)cc1 (stereo not given),95,-43,x,-1,x,100,-1.1
CCC1(C)N=C(N)Nc2nc3cc(C)c(C)cc3n21 (stereo not given),x,x,i,x,0.88,107,x
Cc1ccc(-n2c(SCC(=O)c3c(N)n(C)c(=O)n(C)c3=O)nc3sc4c(c3c2=O)CCCC4)c(C)c1,129,0,i,6,0.86,102,0.3
C=CS(=O)c1sc(Cl)c(N2CCOCC2)c1[N+](=O)[O-] (stereo not given),x,x,i,3,0.8,71,x
CCc1ccc(NC(=O)COC(=O)CN2C(=O)COc3ccccc32)cc1,95,10,i,-2,1,101,-1.4
c1ccc(CNCc2ccc3c(c2)OCO3)nc1,89,-40,i,-4,0.96,87,-4.2
Cc1csc2c(NC3CCN(Cc4ccccc4)CC3)ncnc12,x,x,i,x,1.1,100,x
CCOc1ccc(C2C(C(=O)/C=C/c3ccco3)=C(O)C(=O)N2CCN2CCOCC2)cc1OC (stereo not given),109,5,i,-7,1,98,x
CC(C)OP(C)(=O)CN1CCN(CP(C)(=O)OC(C)C)CC1 (stereo not given),x,x,i,-17,1.2,95,-0.8
COc1ccccc1/C=N/NC(=O)CN(C1=NS(=O)(=O)c2ccccc21)c1ccccc1,201,-36,i,-5,1,106,-0.6
CC(O)Cn1ccccc1=N (stereo not given),95,-29,i,-10,1.1,105,-1.1
CCCC(=O)Nc1cc(C(=O)O)ccc1S(=O)(=O)c1ccc(Cl)cc1,126,-89,i,-4,0.88,103,-1.2
Cc1c(Br)c([N+](=O)[O-])nn1C(C)C(=O)Nc1nccs1 (stereo not given),x,x,i,-1,1.4,102,-1.4
CC(/C=C/c1ccc2c(c1)OCO2)=N\NC(=O)COc1ccccc1C,112,29,i,-1,0.99,115,-1.4
O=C(NC(NC(=O)c1ccccc1)c1cccc([N+](=O)[O-])c1)c1ccccc1,37,-87,i,5,0.83,109,-0.8
CC(=O)OCC(=O)Nc1ccc(SC(F)F)cc1,x,x,i,0,0.97,104,x
Fc1cccc(NC(=S)Nc2ccc(Br)cc2)c1,47,52,i,-5,0.98,101,0.0
Cc1cccc(NC(=O)CSc2ccc(-c3ccccn3)nn2)c1C,x,x,i,-2,0.81,98,x
O=C(OCc1ccc(F)cc1Cl)c1ccccn1,196,25,i,2,1,106,-1.5
O=C(Nc1ccc(OC(=O)c2ccccc2)c(-c2nc3ccccc3s2)c1)c1ccccc1,x,x,i,-4,0.75,97,-3.8
CCOc1ccc(N2C(=O)/C(=C/c3cccs3)N(C)C2=S)cc1,88,0,i,-2,0.61,104,2.1
Cc1ccc(-n2c(=O)cc(N3CCCCCC3)[nH]c2=O)cc1,x,x,i,-5,0.74,103,-1.2
Cc1ccc(F)cc1NC(=O)c1c(-c2ccccc2)noc1C,x,x,i,5,1.1,102,-3.2
COc1cccc(C2c3[nH]c4ccccc4c3CCN2CCCn2cccn2)c1 (stereo not given),x,x,i,6,1.3,103,x
COc1ccc(OC)c(Cc2nnc(CCC(=O)N3CCCCCC3)o2)c1,104,7,i,-8,1,110,x
CC1CCN(Cc2ccc(-c3nnn(CC(=O)Nc4ccccc4Cl)n3)cc2)CC1,x,x,i,-7,0.93,110,x
NC(=S)COc1ccccc1,x,x,i,x,1,99,x
CCOc1cc(CNCc2ccccn2)cc(Cl)c1OC,x,x,i,8,1,109,x
COc1nc(-c2ccccc2)ccc1-c1noc(-c2ccccc2F)n1,x,x,i,-7,0.98,87,-1.3
O=Cc1ccc(N2CCCC2)c(F)c1,72,-96,i,-4,1,100,-1.2
COc1ccc(C(=O)/C=C/Nc2cc(C)ccn2)cc1,x,x,i,x,0.97,96,x
CCOc1ccc(N2C(=O)CC(Sc3nc(CC(C)C)ccc3C#N)C2=O)cc1 (stereo not given),x,x,i,3,1.1,100,x
CCOc1ccc(CCNC(=O)COC(=O)c2ccc(OC)c(OC)c2OC)cc1OCC,x,x,i,-3,1.1,103,x
S=c1[nH]nc(COc2ccc(Cl)cc2)n1C1CCCCC1,62,-437,i,5,0.86,73,-0.3
COc1ccc(/C=C/c2c([N+](=O)[O-])c(=O)n(C)c(=O)n2C)cc1OC,109,19,i,-16,0.71,104,-5.1
Cc1ccc(NC(=O)C2(N3CCC3=O)CCCCC2)cc1,x,x,i,-3,1,103,x

The list goes on:
Molecule,INS promoter inh cell count,INS promoter inh,HSV augment,PKD1 kinase inh,HSV augment primary fold,RGS16-Gao HTS,GALR2 agonist
CCN(CC(=O)Nc1cccc(Br)c1)Cc1nc2ccccc2c(=O)[nH]1,81,-38,i,-8,0.91,99,0.5
CCOc1ccc(OCCN(C)Cc2ccccc2)cc1,215,-33,i,-4,1.1,98,-0.5
O=C(CSc1nnc(-c2ccncc2)n1Cc1ccccc1)NC1CCCc2ccccc21 (stereo not given),96,-24,i,-1,1.1,103,-0.6
CCSc1nnc(-c2ccc(S(=O)(=O)N3CCOCC3)cc2)n1CC1CCCO1 (stereo not given),x,x,i,-9,0.88,103,-0.8
CSc1ccccc1NC(=O)c1ccc(CN2CCOCC2)cc1,46,-276,i,2,1.1,96,x
CC1CCN(C2=C(NS(=O)(=O)c3ccccc3)C(=O)c3ccccc3C2=O)CC1,x,x,i,x,1.3,96,x
